HPGD inh = qHTS Assay for Inhibitors of HPGD (15-Hydroxyprostaglandin Dehydrogenase). 15-hydroxyprostaglandin dehydrogenase [NAD(+)] (Homo sapiens), P15428. purified HPGD, NADH fluorescence kinetic, PGE2 substrate. Potency, µM, without a hit: top-dose activity change, negative = inhibition, hits mostly inhibitors. 150,000 compounds, 4.3% hits; active = well fitted inhibition curve with a large enough effect (not every such curve was filed as active); inconclusive = small, poorly fitted or top-dose-only effect, or another doubt; inactive = no such curve, though single readings can be large or run the other way;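 also: top concentration of the series not given in the record; plate controls included wells without enzyme; inactives centre near -10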
Target sequence (P15428 whole entry, looked up): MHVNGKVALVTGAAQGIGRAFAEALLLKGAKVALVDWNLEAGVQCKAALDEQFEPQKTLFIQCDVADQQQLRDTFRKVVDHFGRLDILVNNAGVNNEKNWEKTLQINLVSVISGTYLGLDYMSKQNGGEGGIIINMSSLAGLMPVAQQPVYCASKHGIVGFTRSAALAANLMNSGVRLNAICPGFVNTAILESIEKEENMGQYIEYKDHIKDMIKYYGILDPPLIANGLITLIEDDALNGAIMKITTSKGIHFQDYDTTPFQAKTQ
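NADH formation kinetics: reaction with 30 uM PGE2 and 1 mM NAD+ (final), 20 nM enzyme, Tris-HCl pH 8 with Tween 20, after 15 min compound preincubation at room temperature. Fluorescence change, last versus first of five reads.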
An asterisk follows results filed as active; ? = inconclusive; & = joins results of further samples. % is scaled to controls: 0 for no effect and ±100 for the full control effect; potency is read from the fitted curve at half-maximal effect.

HPGD inh	molecule
-17%	Cc1ccc2nc(SCC(=O)Nc3ccccc3N3CCOCC3)c(C#N)cc2c1
-6%	C#CCOc1c(Cl)cc(/C=N/O)cc1OC
-2%	Fc1cccc2sc(N3CCOCC3)nc12
-16%	CCN(c1ccc(OC)cc1)c1ncnc2nc[nH]c12
-9%	COc1ccc(S(=O)(=O)NCCOc2ccccc2)cc1OC
-17%	Cc1cc(C)c(-c2csc(NC(=O)COC(=O)c3ccc4c(c3)OCO4)n2)c(C)c1
-9%	CCOC(=O)C1=C(C)N=c2s/c(=C/c3ccccc3)c(=O)n2C1c1ccc(OC)c(OC)c1 (configuration not stated)
-5%	O=C(CN1CCC(n2nnc3ccccc32)CC1)NCc1cccs1
-5%	O=C(COC(=O)CCSc1ccccc1)Nc1ccc(F)cc1Cl
-13%	C/C(=N\NC(=S)Nc1cc(S(=O)(=O)N2CCOCC2)ccc1Cl)c1ccccc1F
-11%	CN(C)S(=O)(=O)N1CCC(Cc2ccccc2)CC1
-15%	Cc1c(C(=O)NCc2ccc3c(c2)OCO3)oc2ccc(S(=O)(=O)N3CCCCC3)cc12
-12%	CN(C)/C=N/c1nc2ccc3c(c2s1)CCCC3
-12%	COC(=O)c1sccc1NC(=O)COc1ccc(Cl)cc1
-7%	Cc1[nH]c2ccccc2c1C(=O)CSc1ncn[nH]1
-23%	CCc1cc(C(=O)Nc2ccc(C)cc2Br)cs1
-4%	N#CCCN1CCN(S(=O)(=O)c2ccc(S(=O)(=O)NCC3CCCO3)cc2)CC1 (configuration not stated)
-14%	Cc1ccc(NC(=O)C(NC2CCCc3ccccc32)c2ccccc2)cc1Cl (configuration not stated)
25µM*	CC(=O)Oc1ccc2c(=O)c(N3C(=O)c4ccccc4C3=O)c(C)oc2c1
-4%	COc1ccc(Br)cc1/C=C/C(=O)Nc1ccc(C)cc1
-4%&-14%&-2%&1%&1%	CN(C)CCCN1c2ccccc2Sc2ccc(Cl)cc21
-13%	CCc1nc2ccccc2n1Cc1ccccc1OC
-11%	Cc1ccc2c(COC(=O)C34CC5CC(CC(C5)C3)C4)cc(=O)oc2c1
-6%	CN(C)S(=O)(=O)c1ccc(N2CCOCC2)nc1
-10%	Cc1ccccc1-n1nc(C(=O)c2cccs2)cc(-c2nc3ccccc3[nH]2)c1=N
-14%	CC(=O)c1c(C)[nH]c(C(=O)N2CCN(c3ccc(F)cc3)CC2)c1C
-14%	CCCCNC(=S)N(C)/N=C/c1ccc(OCC(=O)Nc2ccc(OC)cc2)c(OC)c1
0%	CC(C)C[C@@H](CC(=O)N[C@@H](CCCN)CC(=O)N[C@@H]1CCCC[C@H]1C(=O)N[C@H](CC(=O)N[C@@H](CCC(=O)O)CC(=O)O)Cc1ccccc1)NC(=O)[C@@H]1CCCC[C@H]1N
-4%&-6%	CCCCNC(=O)C(c1ccc(-c2ccccc2)cc1)N(CCN1CCOCC1)C(=O)CCCCCN1C(=O)NC(c2ccc([N+](=O)[O-])cc2)C(C(=O)OCc2ccccc2)=C1C (configuration not stated)
-27%	COC(=O)CN1C(=O)C(C)=C(c2ccc(C)cc2)S1(=O)=O

Molecules from the list above containing a cyano group, in the order listed:
HPGD inh	molecule
-17%	Cc1ccc2nc(SCC(=O)Nc3ccccc3N3CCOCC3)c(C#N)cc2c1
-4%	N#CCCN1CCN(S(=O)(=O)c2ccc(S(=O)(=O)NCC3CCCO3)cc2)CC1 (configuration not stated)

Structural class, the compounds so far containing four or more nitrogen atoms.
HPGD inh	molecule
-17%	Cc1ccc2nc(SCC(=O)Nc3ccccc3N3CCOCC3)c(C#N)cc2c1
-16%	CCN(c1ccc(OC)cc1)c1ncnc2nc[nH]c12
-5%	O=C(CN1CCC(n2nnc3ccccc32)CC1)NCc1cccs1
-13%	C/C(=N\NC(=S)Nc1cc(S(=O)(=O)N2CCOCC2)ccc1Cl)c1ccccc1F
-7%	Cc1[nH]c2ccccc2c1C(=O)CSc1ncn[nH]1
-4%	N#CCCN1CCN(S(=O)(=O)c2ccc(S(=O)(=O)NCC3CCCO3)cc2)CC1 (configuration not stated)
-10%	Cc1ccccc1-n1nc(C(=O)c2cccs2)cc(-c2nc3ccccc3[nH]2)c1=N
-14%	CCCCNC(=S)N(C)/N=C/c1ccc(OCC(=O)Nc2ccc(OC)cc2)c(OC)c1
0%	CC(C)C[C@@H](CC(=O)N[C@@H](CCCN)CC(=O)N[C@@H]1CCCC[C@H]1C(=O)N[C@H](CC(=O)N[C@@H](CCC(=O)O)CC(=O)O)Cc1ccccc1)NC(=O)[C@@H]1CCCC[C@H]1N
-4%&-6%	CCCCNC(=O)C(c1ccc(-c2ccccc2)cc1)N(CCN1CCOCC1)C(=O)CCCCCN1C(=O)NC(c2ccc([N+](=O)[O-])cc2)C(C(=O)OCc2ccccc2)=C1C (configuration not stated)

Next section
HPGD inh	molecule
-7%	Nc1csnc1C(=O)O
0%	C=CCNc1nc(Nc2ccc(OC)cc2)nc(OCC)n1
-9%	C=CCn1c(SCc2c(C)noc2C)nc2sc3c(c2c1=O)CCCCC3
-13%	CCOC(=O)c1oc2ccccc2c1CSc1nnnn1-c1ccccc1
-8%	COc1cccc(OCCOc2ccccc2OC(C)C)c1
?	CCCCNc1nc(C)nc2c1nc(-c1ccccc1)n2CC(C)(C)CN(C)C
-15%	CCN(CC)c1ncnc2c1sc1nc(C)cc(C)c12
-16%	CC1CN(S(=O)(=O)c2cccc(-c3csc(-c4ccccc4)n3)c2)CC(C)O1 (configuration not stated)
-11%	Cc1cccc(NC(=S)N2CCN(Cc3ccc4c(c3)OCO4)CC2)c1C
-9%	O=C(CN1C(=O)S/C(=C\C=C\c2ccccc2)C1=O)Nc1ccc(O)cc1
-19%	Cc1ccc2nc(Cl)c(/C=N/NC(=O)c3ccccc3O)cc2c1
-1%	CS(=O)(=O)N(CC(=O)N1CCN(C(c2ccccc2)c2ccccc2)CC1)C1CCCCC1
-25%	Cc1nn(Cc2ccccc2Cl)c(C)c1C(=O)Nc1nnc(C2CC2)s1
-14%	C[C@]12CC[C@@H]3c4ccc(OC(=O)c5ccccc5)cc4CC[C@H]3[C@@H]1CC[C@@H]2O
-15%	CS(=O)(=O)N(CC(=O)Nc1c(F)cccc1F)c1ccc(C23CC4CC(CC(C4)C2)C3)cc1
-14%	CCOC(=O)c1ccccc1Nc1cn(C(C)=O)c2ccccc12
-16%	Cc1cccc(C(=O)N2CCC(=O)N([C@H](COCc3cccc(Cl)c3)Cc3ccccc3)CC2)c1
-6%	Cc1ccc(OCCCC(=O)Nc2ccc3c(c2)OCO3)cc1
-14%	COc1ccc(/C=C/c2ccncc2)c2ccccc12
-17%	CC1Oc2ccccc2C=C1C1/C(=C(/O)c2ccccc2)C(=O)C(=O)N1CCCN(C)C (configuration not stated)
3%	CC(C)(C)c1ccc(C(=O)NNC(=O)c2ccccc2Br)cc1
1%	NCCCC(N)CC(=O)NCC1NC(=O)C(CO)NC(=O)C(N)CNC(=O)C(C2CCN=C(N)N2)NC(=O)/C(=C\NC(N)=O)NC1=O (configuration not stated)
-3%	c1nc(NC2CCCCC2)c2[nH]cnc2n1
-13%	CCn1c(-c2ccccc2Cl)nn(CC(=O)NCCc2ccccc2)c1=S
-21%	O=C(C1CCN(S(=O)(=O)c2cccc3nsnc23)CC1)N1CC=C(c2ccccc2)CC1
?	O=C(CCCCCN1C(=O)c2ccccc2C1=O)Oc1ccc2c3c(c(=O)oc2c1)CCC3
-15%	Cc1oc(C(=O)Nc2ccc(O)cc2)cc1COc1ccccc1
-17%	CCOc1cccc(NC(=O)C2CCCN(S(=O)(=O)c3ccc(OC)cc3)C2)c1 (configuration not stated)
-10%	Nc1nonc1-c1nc2ccccc2n1CCC(=O)O
-1%	O=C(Nc1ccc2c(c1)CCC2)c1cc(S(=O)(=O)N2CCN(c3ccccc3)CC2)ccc1Cl
6%	O=C(Cn1c(=O)oc2ccccc21)NC(=O)NCc1ccccc1
-17%	O=C(Nc1cccnc1)Nc1ccc2c(c1)OCO2
-11%	COc1cc(C)ccc1OCCOCCOc1ccc(C)cc1[N+](=O)[O-]
-6%	CCC(=O)N1c2ccc(S(=O)(=O)CCC(=O)N3CCn4c3nc3ccccc34)cc2CC1C (configuration not stated)
-8%	COc1cc(CNCC(O)c2ccccc2)ccc1OCc1ccc(Cl)nc1 (configuration not stated)
-10%	O=S(=O)(NCCc1ccncc1)c1ccccc1
-15%	Cc1ccc(C(=O)N2CCN(c3ccc(C(F)(F)F)cn3)CC2)c(C)c1
-9%	O=C(Cc1n[nH]c(=O)c2ccccc12)NCc1ccccn1
4.5µM*	O=C(O)[C@H]1CCCC[C@@H]1c1c2ccc(=O)c(O)c-2oc2c(O)c(O)ccc12
-28%	O=C1c2cccnc2C(=O)N1Cc1cccs1
-7%	COc1ccc(CNC(=O)/C(C#N)=C2\N=C(NC(=O)c3cccs3)c3ccccc32)cc1
-11%	Cc1ccc(S(=O)(=O)N2CCN(S(=O)(=O)N3CCOCC3)CC2)cc1C
?	c1ccc(-c2c3ccccc3nc3[nH]c4ccccc4c23)cc1
-23%	Cc1ccccc1OCCNC(=O)c1ccc2ccccc2n1
-4%	O=c1nc(N(c2ccccc2)c2ccccc2)[nH]c(=O)[nH]1
-19%	O=C(Oc1ccc(Cl)c2cccnc12)N1CCCCCC1
-7%	CCCC(=O)N1CCN(c2ccc([N+](=O)[O-])cc2Cl)CC1
-7%	CCOC(=O)C1=C(N)Oc2c(oc(CO)cc2=O)C1c1c(F)cccc1Cl (configuration not stated)
-10%	Cc1ccc(NC(=O)CCNC(=O)c2ccco2)cc1
2%	Cc1ccc2nc(NC3=NCN(C4CCCCC4)CN3)nc(C)c2c1

More records follow.
HPGD inh	molecule
-6%	Cc1cc(C(=O)NCCCN2CCN(c3cc(Cl)ccc3C)CC2)n(-c2ccccc2)n1
?	CCCCOc1ncnc2c1[nH]c1ccccc12
-6%	CCOC(=O)C1=C(C)NC(=O)CC1c1ccccc1 (configuration not stated)
-1%	CN(C(=O)COc1cccc(Br)c1)C1CCS(=O)(=O)C1 (configuration not stated)
-4%	O=C(Nc1ccc2c(c1)OCCO2)C1CCN(S(=O)(=O)c2ccc(Br)s2)CC1
-10%	Cc1ccc(NC2=NCCCCC2)cc1C
-6%	CCOC(=O)C1CCN(S(=O)(=O)c2ccc3[nH]c(=O)oc3c2)CC1
-28%	CC(C)c1ccc(NC(=O)C(c2ccc3c(c2)OCO3)N2CCCCC2)cc1 (configuration not stated)
?	CCCCC(=O)Nc1nn(CCC)c2nc3ccccc3cc12
-3%	Cc1c(-c2ccccc2)[n+](=O)c2c(n1[O-])CCC2
-27%	COc1cc2c(cc1OC)C(=O)CCS2
16µM*	Oc1ccc(/C=N/N=C(c2ccccc2)c2ccccc2)c(O)c1O
-2%	Cn1c(SCC(=O)OC2CCCCC2)nnc1-c1ccc2c(c1)OCO2
35µM*	CCOC(=O)C(C)Oc1ccc2c(-c3cccc([N+](=O)[O-])c3)cc(=O)oc2c1 (configuration not stated)
-2%	Cc1cc(C)n(-c2ccc(C(=O)Nc3ccc(S(=O)(=O)N(C)C)cc3)cc2)n1
-10%	CCOC(=O)c1c(N2C(=O)Nc3cc(Cl)c(Cl)cc3N2O)sc2c1CCCCC2
-19%	Cc1ccc([N+](=O)[O-])c2cccnc12
-1%	Cc1cc(NC(=O)CCC(=O)N(c2ccccc2)C(C(=O)NC2CCCC2)c2ccncc2)no1 (configuration not stated)
-9%	Cc1nn(C)cc1NC(=O)CCSc1nc(-c2ccco2)cc(C(F)(F)F)n1
-12%	COc1cccc(NC2SC(=O)N(c3ccccc3)C2=O)c1 (configuration not stated)
-5%	c1ccc2c(c1)CCN(Cc1nnnn1Cc1ccc3c(c1)OCO3)C2
-11%	Cc1cccc(C)c1OCc1nnc2c3cnn(C)c3ncn12
-2%	COc1ccc(Cn2c(-c3ccc(Br)cc3)c[n+]3ccccc23)cc1
-20%	CSc1nnc2c3ccccc3c3ccccc3c2n1
-25%	CCCOc1cccc(-c2nn(-c3ccccc3)cc2/C=C(\C#N)C(=O)NCCCn2ccnc2)c1
0%	CCOc1ccccc1NC(=O)CSc1nnc(-c2ccccc2Cl)n1Cc1ccco1
-4%	COc1cccc(CNC(=O)C(=O)NCC2CCCO2)c1 (configuration not stated)
8.9µM*	N#CC(=C(\N)Sc1ccccc1N)/C(C#N)=C(/N)Sc1ccccc1N
-17%	O=C1N2CCCc3cccc(c32)C12Nc1ccccc1S2 (configuration not stated)
-14%	COc1ccc(OC)c(NC(=O)CSc2nc(C)cs2)c1
-2%	COc1ccccc1Oc1ccc(S(=O)(=O)NCc2ccccn2)cc1
-15%	CCOC(=O)CSc1nc(C2CC2)cc(-c2ccc(F)cc2)c1C#N
?	CCOc1cc(C2Nc3ccccc3C(=O)N2c2ccccc2)ccc1O (configuration not stated)
?	Cc1ccc(SCCC(=O)NC(C)(C)C)cc1
-10%	Cc1cc(C)cc(NC(=O)N2CCC(c3nc4ccccc4o3)CC2)c1
25µM*	COc1ccc(Nc2nnc(SCc3cc([N+](=O)[O-])cc4c3OCOC4)s2)cc1
-9%	O=C(NCC(c1cccs1)N1CCOCC1)c1cc([N+](=O)[O-])ccc1Cl (configuration not stated)
-18%	CCOc1ccc(C(=O)N(Cc2ccc(OC)cc2)Cc2cc3cc(OC)ccc3[nH]c2=O)cc1
-19%	CCC(C)N(C(=O)COC(=O)CCc1c[nH]c2ccccc12)C1CCS(=O)(=O)C1 (configuration not stated)
-27%	COc1ccc(S(=O)(=O)NCC2CCC(C(=O)NCCC(C)C)CC2)cc1 (configuration not stated)
0%	N#Cc1cc2c(nc1SC1CC(=O)N(c3ccccc3)C1=O)CCC2 (configuration not stated)
3%	NC[C@@H]1O[C@H](O[C@H]2[C@H](O)[C@H](O[C@@H]3O[C@H](CO)[C@@H](O)[C@H](N)[C@@H]3O)[C@@H](N)C[C@H]2N)[C@@H](O)[C@H](O)[C@@H]1O

Source: PubChem BioAssay (National Center for Advancing Translational Sciences (NCATS))

Not all compounds are listed (hit frequency here may not be typical).
